HCMV UL50-53 inh – inhibitors of HCMV UL50-UL53 interaction, biochemical, HTRF; HCMV UL50-UL53 nuclear egress complex (human cytomegalovirus); inhibition, % (concentration not given with the values); 0.15% of 190,000 active; normalized percent inhibition;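 active = both replicates at 50% or more, plus weaker picks with an unusually low signal ratio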;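 note: stock transfer was 100 nL into about 20 µL; 0% = negative control wells and 100% = wells with untagged competitor protein; inactives centre near -12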
GIV-Gai inh – inhibitors of GIV peptide binding to Galpha-i3, primary screen, biochemical, fluorescence polarization, FITC-GIV GBA peptide, rat Galphai3; Guanine nucleotide-binding protein G(i) subunit alpha-3 (Rattus norvegicus), P08753; 90 min; active compounds read low; scaled: aluminum fluoride 0%, vehicle 100%; percent of control (FP), % (no concentration beside the values); 0.42% of 210,000 active;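 active = replicate mean at 85% of control or lower, very high polarization wells dropped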;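 note: wells of about 15 µL received 100 nL stock; the first replicate is given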
Target sequence (P08753 whole entry, looked up): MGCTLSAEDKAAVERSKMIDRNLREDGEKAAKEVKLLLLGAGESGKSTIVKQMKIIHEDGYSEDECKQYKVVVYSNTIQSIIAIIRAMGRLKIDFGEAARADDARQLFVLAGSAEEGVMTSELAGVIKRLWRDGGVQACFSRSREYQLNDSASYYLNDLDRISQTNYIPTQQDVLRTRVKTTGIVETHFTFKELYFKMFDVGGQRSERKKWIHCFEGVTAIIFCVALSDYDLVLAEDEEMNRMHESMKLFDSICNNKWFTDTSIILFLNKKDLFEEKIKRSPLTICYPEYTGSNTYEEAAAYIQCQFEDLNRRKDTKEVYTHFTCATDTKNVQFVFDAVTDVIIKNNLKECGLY
Sa growth 42C – S. aureus growth inhibition at 42 and 30 °C, primary screen, LtaS inhibitor project, RN4220, two temperatures. OD600, 20 h, 42 °C; active compounds read low. relative growth, % (no concentration beside the values). 0.53% of 170,000 active;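 active = growth at 42 °C up to 50% and 20 or more points under that at 30 °C, or under 10% at both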;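 note: 300 nL library stock went into each well; scaled to the means of positive and negative controls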
Sa growth 42C second temp – further read-out of Sa growth 42C, marked with its call; relative growth, %; measured here: growth at 30 °C;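 optical density after 20 h as mean of two plates; 100% = untreated growth and lower means inhibition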
The depositor's hits bear a star; / = not tested or not shown; & = joins results of further samples. Hits appear at their usual frequency. About 0.85% of those tested had a hit in this group.

SMILES | HCMV UL50-53 inh | GIV-Gai inh | Sa growth 42C | Sa growth 42C second temp
CC1Cc2ccccc2N1C(=O)CSc1nnc(-c2cccc(Cl)c2)o1 (stereo unspecified) | 0 | 95 | 93 | 87
CCCS(=O)(=O)N1CC(=O)N(c2cccc(F)c2)C(C)(C(=O)NC2CCCCCC2)C1 (stereo unspecified) | / | 105 | 118 | 94
CCOC(=O)/C=C(C)/C=C/C=C(C)/C=C/c1c(C)cc(OC)c(C)c1C | -22 | 103 | 89 | 84
COC(=O)CCn1ccc(C)n1 | -5 | 106 | 92 | 91
Fc1ccccc1N1CCN(c2ncc3c(n2)CCN(Cc2ccc(Br)s2)C3)CC1 | / | 103 | 97 | 91
O=C(Oc1ccc(Br)cc1)c1cccnc1N1CCCC1 | -4 | / | 69 | 91
CCOc1ccc(CCNC(=O)C2CCN(C(=O)c3cc4sccc4n3CC)CC2)cc1OCC | 6 | 110 | 100 | 80
CCOC(=O)N1CCc2c(sc3ncn(C)c(=O)c23)C1 | -32 | 104 | 85 | 81
COc1ccc(N(C)C(=O)C2CCN(S(=O)(=O)c3cccc4nonc34)CC2)cc1 | -35 | 108 | 105 | 88
O=C(NCCO)c1cn(Cc2ccccc2)nc1-c1ccccc1 | -6 | / | 105 | 91
CC1CN(C(=O)Nc2ccc(C(=O)NCc3ccccc3)cc2)c2ccccc2S1 (stereo unspecified) | 10 | 106 | / | /
COc1ccc(NC(=S)NCC(OC)OC)cc1 | -12 | 102 | 83 | 78
O=C(Nc1ccc(Oc2ccccc2)cc1)c1cnccn1 | -6 | 102 | 91 | 93
CSc1ncc(Cl)c(C(=O)Nc2c(C(=O)c3ccc(C)cc3)oc3ccccc23)n1 | -21 | 101 | 108 | 88
O=C(Cc1ccccc1)NC1=NCCS1 | / | 103 | 97 | 83
Cc1sc(-c2ccno2)cc1S(=O)(=O)NCCC(C)C | -19 | 101 | / | /
CCc1ccc(Nc2nnnn2-c2ccccc2)cc1 | -33 | / | 88 | 89
CCOC(=O)c1nc(Nc2ccc(OC)cc2OC)c2ccccc2n1 | -28 | 105 | / | /
Cc1nc(-c2ccccc2)cc(N2CCN(Cc3ccc4c(c3)OCO4)CC2)n1 | -7 | 101 | / | /
Cc1cccc(Oc2nc3c(c(=O)n(C)c(=O)n3C)n2C)c1 | -4 | 109 | 97 | 99
COc1cc(C)nc(OCCNC(=O)COc2ccc(Cl)cc2C)n1 | -29 | 105 | 98 | 85
CCc1nc2cc(C(F)(F)F)cc(Cl)c2nc1CC | / | 97 | 98 | 83
O=C(NCc1ccc(F)cc1)Nc1c[nH]c(=O)[nH]c1=O | -3 | 97 | / | /
COc1cc2nc(NCCc3ccccc3)n3nc(-c4cccnc4)nc3c2cc1OC | 4 | 97 | 90 | 104
CNC(=O)NCCN1CCCC1=O | -4 | 105 | 125 | 103

Looked up above:
Sa growth 42C with O=C(Cc1ccccc1)NC1=NCCS1 is entered as 97
GIV-Gai inh with Cc1nc(-c2ccccc2)cc(N2CCN(Cc3ccc4c(c3)OCO4)CC2)n1 is entered as 101
Sa growth 42C with CCc1nc2cc(C(F)(F)F)cc(Cl)c2nc1CC is entered as 98

Next part:
SMILES | HCMV UL50-53 inh | GIV-Gai inh | Sa growth 42C | Sa growth 42C second temp
Cc1n[nH]c(=S)n1CC1CCCO1 (stereo unspecified) | -16 | 96 | 103 | 94
O=C(Nc1cccc(C(=O)N2CCOCC2)c1)NC1CCCCC1 | 4 | 102 | 115 | 80
CN(CC(=O)c1c(N)n(C)c(=O)n(C)c1=O)C1CCS(=O)(=O)C1 (stereo unspecified) | -21 | / | 82 | 88
CCOC(=O)C(C#N)=C1CCCC1 | -8 | 107 | 114 | 86
CCCCn1c2c(c3ccccc31)CCc1nonc1-2 | / | 99 | 79 | 87
CCN(C(=O)Cn1nnc(-c2ccc3c(c2)OCO3)n1)c1ccccc1 | -13 | / | 90 | 86
COc1ccc(Cn2ccnc2SCC(=O)Nc2nnc(C)s2)cc1 | / | 106 | 105 | 97
CCOC(=O)c1ccc(NC(=O)C2OCCc3ccccc32)cc1 (stereo unspecified) | -9 | 104 | 100 | 81
CN(C(=O)c1ccccc1NS(=O)(=O)c1ccc(F)cc1)C1CCCCC1 | 12 | / | 82 | 98
Cc1ccc(NC(=O)CSc2nc(C3CCCC3)nc3c2c(=O)n(C)c(=O)n3C)c(C)c1 | / | 101 | 81 | 89
Cc1nc2nc(NCc3ccc(Cl)cc3)[nH]n2c(=O)c1Cc1ccccc1 | -11 | 99 | 120 | 87
Cc1sc2nc(CSC(C)C(=O)N=c3sc4ccccc4n3C)[nH]c(=O)c2c1C (stereo unspecified) | -6 | / | 97 | 92
O=S(=O)(c1cccc(Cl)c1)N1CCc2ccccc2C1 | 12 | / | 93 | 101
CC(C)NC(=O)N1CCn2cccc2C1C (stereo unspecified) | -16 | 105 | 96 | 91
O=C(Cn1ncc2c1-c1ccccc1OC2)NCCCN1CCCC1 | -1 | 106 | 93 | 82
Nc1ccc(NC(=O)c2cccc(C(=O)Nc3ccc(N)cc3Cl)c2)c(Cl)c1 | 37 | 104 | 103 | 108
N#Cc1cc(N)ccc1-n1cccc1 | / | 101 | 89 | 88
CCOC(=O)c1cc(C(C)(C)C)n(-c2ccc(N3CCOCC3)cc2)c1C | / | 105 | 116 | 90
CCN(CC)S(=O)(=O)c1ccc2c(c1)c(=O)c(C(=O)N1CCN(c3ccc(F)cc3)CC1)cn2C | 7 | 108 | 94 | 105
CSc1nn(Cc2ccc(Br)cc2)c(N(C(C)=O)C(C)=O)c1S(=O)(=O)c1ccccc1 | -32 | 99 | 95 | 63
CCC(CC)NC(=O)c1ccc2nc[nH]c2c1 | -28 | / | 74 | 86
CCCCSc1nnc2n(Cc3ccc(OCC)c(OCC)c3)c(=O)c3sccc3n12 | 13 | 106 | / | /
CCOC(=O)c1sc2ccccc2c1S(=O)(=O)N1CCN(c2ccccc2F)CC1 | / | 101 | 82 | 71
COc1ccc(C2CC(=O)NC(NC(=O)CCCOc3ccccc3)=N2)cc1 (stereo unspecified) | -26 | 103 | 101 | 83
OC(CC#CCN1CCOCC1)(c1ccccc1)c1ccccc1 | -14 | 107 | 115 | 103

3 compounds from above, ordered by molecular weight, rising.
SMILES | HCMV UL50-53 inh | GIV-Gai inh | Sa growth 42C | Sa growth 42C second temp
N#Cc1cc(N)ccc1-n1cccc1 | / | 101 | 89 | 88
O=S(=O)(c1cccc(Cl)c1)N1CCc2ccccc2C1 | 12 | / | 93 | 101
O=C(Nc1cccc(C(=O)N2CCOCC2)c1)NC1CCCCC1 | 4 | 102 | 115 | 80

The list goes on:
SMILES | HCMV UL50-53 inh | GIV-Gai inh | Sa growth 42C | Sa growth 42C second temp
N#Cc1ccc(NC(=O)C(F)(F)F)cc1 | 10 | / | 89 | 102
Cc1ccc(S(N)(=O)=O)cc1C(=O)NCC(C)C | -35 | 101 | 96 | 102
COc1cc(C(=O)N2CCCN(c3nc4cc(C)ccc4cc3C#N)CC2)cc(OC)c1OC | 11 | 98 | 101 | 95
O=C(CCn1cccc1)Nc1ccccc1 | 9 | 100 | 103 | 104
CC(Oc1ccc(F)cc1)C(=O)Nc1cc(-c2ccc(F)c(F)c2)no1 (stereo unspecified) | 18 | 102 | 103 | 93
Cc1cc(-c2ccc(S(=O)(=O)NC3CCCc4ccccc43)cc2)on1 (stereo unspecified) | -6 | 99 | 95 | 91
Cc1cccc(C)c1NCc1nnc(SCC(N)=O)n1-c1ccccc1 | -23 | 102 | 100 | 81
COc1ccc(-c2nc(C)c(CCNC(=O)c3cccs3)s2)cc1 | / | 100 | 65 | 83
Cc1ccc(CNc2ccc3nnc(CCNC(=O)c4ccccc4F)n3n2)cc1 | -4 | 105 | / | /
COC(=O)C1=C(N)OC2=C(C(=O)CC(c3ccccc3)C2)C1c1cccc(Cl)c1 (stereo unspecified) | -10 | 108 | / | /
CC(C)C(NC(=O)COc1ccccc1)C(C)C | 1 | 96 | 90 | 101
Cc1nc2ccccc2n1Cc1nnc2n1N=C(N)CS2 | -6 | 99 | / | /
On1c(-c2ccc(Cl)cc2)nc2ccc(Cl)cc21 | 2 | 105 | / | /
Cc1ccc(-c2cc(-c3nc(-c4ccc5c(c4)OCO5)no3)[nH]n2)c(C)c1 | -20 | 107 | / | /
COC(=O)C1=CN(CCCN2CCCC2=O)C=C(C(=O)OC)C1c1cccc(F)c1 | -36 | 100 | 90 | 80
CCOc1ccccc1NCc1nc2nc(C)c(C)c(=O)n2[nH]1 | -13 | 102 | / | /
CN(CCC#N)C(=O)C1CCN(S(=O)(=O)c2ccc(-n3cnnn3)cc2)CC1 | 19 | 107 | 95 | 106
O=C(c1ccccc1)N1N=C(c2ccccc2)CC1c1ccc2nccnc2c1 (stereo unspecified) | / | 105 | 106 | 83
COc1ccc(NC(=O)N2CCc3cc(OC)c(OC)cc3C2c2ccccc2)cc1 (stereo unspecified) | / | 99 | 85 | 87
Cc1ccc(-n2nnc(C(=O)OCc3ccc(Cl)cc3)c2C)cc1Cl | -35 | 101 | / | /
Cc1ccc(-c2noc(C3CCN(C(=O)c4sc(C)nc4C)CC3)n2)cc1 | -16 | 108 | / | /
O=C(O)Cn1cc2c(n1)CCCCC2 | -4 | 104 | 99 | 92
Cn1nc(C(=O)N2CCCC2c2nc3ccccc3s2)c2ccccc2c1=O (stereo unspecified) | -12 | / | 78 | 88
CCOCCOC(=O)c1ccc2c(c1)N(Cc1ccc(OC)cc1)C(=O)c1ccccc1S2 | -8 | 100 | / | /
CCOC(=O)/C(C#N)=C\c1ccc(-c2cccc(C(F)(F)F)c2)o1 | 1 | 107 | 117 | 90

One compound at a time, as listed above. Values in the order: HCMV UL50-53 inh, GIV-Gai inh, Sa growth 42C, Sa growth 42C second temp
Results for CSc1ncc(Cl)c(C(=O)Nc2c(C(=O)c3ccc(C)cc3)oc3ccccc23)n1 : -21, 101, 108, 88
Results for O=C(Nc1cccc(C(=O)N2CCOCC2)c1)NC1CCCCC1 : 4, 102, 115, 80

Other records follow:
SMILES | HCMV UL50-53 inh | GIV-Gai inh | Sa growth 42C | Sa growth 42C second temp
COC(=O)CSc1nc2ccccc2n1-c1ccc(C)cc1 | -10 | / | 102 | 89
Cc1ccc(-c2noc(-c3cccnc3N3CCCC3)n2)cc1 | -16 | 100 | / | /
c1ccc(SCc2cn3cccnc3n2)cc1 | -14 | / | 108 | 95
Cn1c(CN(c2ccc(F)cc2)S(C)(=O)=O)nnc1SCC(=O)Nc1ccc(F)cc1 | -18 | 103 | / | /
CCCc1ccc(OC(=O)c2cccs2)cc1 | 4 | 104 | 93 | 104
CNC(=O)c1cc(N2CCN(c3ccccc3)CC2)ccn1 | -14 | / | 92 | 96
Cc1ccc(OCC(=O)Nc2ccc(O)c(C(=O)O)c2)cc1 | 3 | 100 | 81 | 104
O=C(CS(=O)(=O)c1ccc(Cl)cc1)NO | -9 | 101 | 100 | 96
CCn1c(CNC(=O)C23CC4CC(CC(C4)C2)C3)nnc1SCC(=O)Nc1ccc(OC)cc1 | 11 | 109 | 107 | 80
COC(=O)c1sc2ncccc2c1N | -58&-142 | 101&102 | 124 | 82
Cc1ccc(Cn2nnc3c(=O)[nH]c(C4CCN(S(=O)(=O)c5ccccc5C#N)CC4)nc32)cc1 | -12 | 96 | 89 | 64
Cc1cc(=O)oc2cc(OCC(=O)c3ccc4c(c3)NC(=O)CO4)ccc12 | -22 | / | 81 | 71
C/C(=N\n1cnnc1)c1ccc(O)cc1 | -21 | / | 81 | 92
COc1cccc(NC(=O)CSc2nc3ccc(NC(=O)c4cccs4)cc3s2)c1 | -11 | 102 | 106 | 85
O=C(NCCC1=CCCCC1)c1cc2cccc3c2n1CCS3 | -21 | 104 | 89 | 88
CCOC(=O)CCc1c(C)nn(-c2ccc(N3CCCCC3)nn2)c1C | -20 | 111 | 103 | 90
COC(=O)c1ccc(COC(=O)c2ccc(S(=O)(=O)N(C)c3ccccc3OC)cc2)o1 | 2 | / | 100 | 104
CCOc1ccccc1NC(=O)c1sc2ncnc(N3CCN(c4ccccn4)CC3)c2c1C | 1&-11 | 105&96 | / | /

Random excerpt: two entries already listed, in no set order.
SMILES | HCMV UL50-53 inh | GIV-Gai inh | Sa growth 42C | Sa growth 42C second temp
CCn1c(CNC(=O)C23CC4CC(CC(C4)C2)C3)nnc1SCC(=O)Nc1ccc(OC)cc1 | 11 | 109 | 107 | 80
CCOC(=O)CCc1c(C)nn(-c2ccc(N3CCCCC3)nn2)c1C | -20 | 111 | 103 | 90

High-throughput results: PubChem, ICCB-Longwood Screening Facility, Harvard Medical School
